CBX7 AlphaScr – blocks human CBX7 binding to H3K27me3 peptide; AlphaScreen His6-CBX7 / biotin-H3K27me3 peptide binding; hits give low values; normalised signal (fraction of DMSO) (concentration not given with the values); 66,000 compounds, 1.1% hits; AID 1224903; in the data active = normalised signal below about 0.5;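 note: 100 nL library stock added to about 20 µL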
Target sequence (O95931 whole entry, looked up): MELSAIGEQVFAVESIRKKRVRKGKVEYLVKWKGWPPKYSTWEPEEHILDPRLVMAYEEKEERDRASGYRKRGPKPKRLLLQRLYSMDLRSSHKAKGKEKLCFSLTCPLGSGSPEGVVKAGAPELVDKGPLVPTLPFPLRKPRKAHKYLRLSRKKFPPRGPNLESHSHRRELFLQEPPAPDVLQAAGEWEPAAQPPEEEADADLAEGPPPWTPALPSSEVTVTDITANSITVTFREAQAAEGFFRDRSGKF
CBX7 AlphaScr z-score – recorded beside CBX7 AlphaScr, whose call it bears; z-score; measured here: z-score of CBX7 signal; some inactives read as strong as hits; reference of the scale not given here;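 same signal on another scale; lower means less binding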
* marks the source's active call; other numbers are inactive results. This is a subset (hit frequency here may not be typical).

The line under a structure holds: CBX7 AlphaScr z-score, CBX7 AlphaScr
CCOC(=O)N1CCC(NC(=O)CSCc2nc(-c3ccc(C)cc3)oc2C)CC1
  3.7, 1.2
COc1ccc(Nc2ncc(C(=O)Nc3cc(C)c(Cl)cc3OC)c3ccccc23)cc1
  2.6, 1.1
CCOC(=O)c1cnc2ccc(OCC)cc2c1Nc1ccc(C)c(F)c1
  -0.38, 0.66
CCc1ccc(Nc2cc(C(=O)NCCCN3CCCC3=O)c3ccccc3n2)cc1
  3.4, 1.2
COc1ccc(C)cc1NC(=O)c1ccc(CNc2c(N3CCOCC3)c(=O)c2=O)cc1
  1.2, 1.2
COc1ccc(NC(=O)CSc2nccn2-c2cccc(Cl)c2)c(OC)c1
  -1.8, 0.9
O=C(Cn1cc(S(=O)(=O)c2ccc(F)cc2)c(=O)c2ccccc21)Nc1ccccc1
  0.99, 1
CCC1Oc2ccccc2N(CC(=O)NCCCN2CC(C)CC(C)C2)C1=O (centres undefined)
  -0.31, 0.99
Cc1cccc(C(=O)Nc2nnc(Cc3c[nH]c4ccccc34)s2)c1
  -0.061, 0.95
Cc1oc(-c2ccc(Cl)cc2)nc1CSCC(=O)NCCCN1CCCC1
  2.8, 1.1
CCC1CCCCN1Cc1c(C)[nH]c2ccc(C)cc2c1=O (centres undefined)
  0.65, 1
COc1cccc(-n2c(Cc3cc(=O)[nH]c(=O)[nH]3)nnc2SCc2cccc(Cl)c2)c1
  -1.7, 0.89
Cc1ccccc1CC(Cc1nc2ccccc2[nH]1)c1nc2ccccc2[nH]1 (centres undefined)
  0.0003, 1
Cc1ccc(-c2ccc(=O)n(CC(=O)NCCCN3CCN(C)CC3)n2)cc1
  1, 1
Cc1nc2cc(-c3ccccc3)nn2c(C)c1CCC(=O)Nc1ccc(CN2CCCC2)cc1
  2.7, 1.1
CCOc1ccc(-n2c(Cc3cc(=O)[nH]c(=O)[nH]3)nnc2SCc2cccnc2)cc1
  0.66, 1
COc1ccc(OC)c2[nH]c(=O)c(CCNC(=O)c3cc4ccccc4o3)cc12
  1.4, 1
COCCn1c(=O)[nH]c2cc(C(=O)N3CCN(c4cccc(OC)c4)CC3)ccc2c1=O
  -0.22, 0.99
CN(C)CCNC(=O)c1ccc2c(c1)N(Cc1ccc(Cl)cc1)C(=O)CS2
  1.6, 1
CCOc1ccc(S(=O)(=O)c2cn(Cc3cccc(C)c3)c3ccc(OC)cc3c2=O)cc1
  -1.2, 0.97
Cn1c(C(=O)N=C2NC(=O)CS2)cc2sc(Cl)cc21
  0.23, 1
CN1C(=O)CSc2ccc(NC(=O)Nc3ccc(F)cc3F)cc21
  -0.38, 0.99
CC(=O)n1nc(-c2ccccc2)c(-c2nc3ccccc3[nH]2)c1C
  -1.2, 0.96
Clc1ccc(-c2cc(-c3nc(-c4ccncc4)no3)c3ccccc3n2)cc1
  -0.05, 0.95
c1ccc(NCc2nc(-c3ccccc3)no2)cc1
  -0.34, 0.97
Cc1ccc(-n2cc(C(=O)Nc3cc(F)ccc3C)c3ccccc3c2=O)cc1C
  0.023, 1
O=C(Nc1c(F)cc(F)cc1Br)C1CCN(c2nc3ccccc3[nH]2)CC1
  -2.1, 0.81
COc1ccc(CCN2CC(C(=O)NCCc3ccccc3)CC2=O)cc1OC (centres undefined)
  0.66, 1
COc1ccc(-c2ccc(=O)n(CC(=O)Nc3ccc(N(C)C)cc3)n2)cc1
  -2.5, 0.81
COCCNC(=O)c1ccc2c(c1)ncn2-c1ccc(F)c(F)c1
  -1.4, 0.88
CCOC(=O)c1ccc(N2C(=O)CC(NCCc3ccc(OC)cc3)C2=O)cc1 (centres undefined)
  -0.72, 0.92
O=C(Cn1cc2c(n1)CCCC2)NCc1cccnc1
  0.36, 1
O=C(NCc1ccncc1)C(=O)Nc1ccc(Br)cc1
  0.21, 1
COc1cccc(-c2cc(C(F)(F)F)nc(-n3nnnc3C)n2)c1
  -0.18, 0.99
CC(=O)C1(N2CCCCC2)CCN(C2CC(=O)N(Cc3ccc(Cl)cc3)C2=O)CC1 (centres undefined)
  -0.34, 0.99
COc1cc(-c2nc(NCc3ccc(F)cc3)c3ccccc3n2)cc(OC)c1OC
  2.7, 1.1
CC(C)NCC(=O)Nc1c2c(nc3c1CCC3)CCCC2
  -6.4, 0.52
COc1ccc(CC(=O)Nc2sc3c(c2C(=O)Nc2cc(OC)ccc2OC)CCC(C)C3)cc1 (centres undefined)
  0.24, 1
O=C(CNc1nncs1)c1c[nH]c2ccccc12
  0.43, 1
CCn1c2c(c3cc(OCc4ccccc4)ccc31)CCCCC2=O
  0.25, 1.1
COC(=O)c1ccc(C(=O)Nc2nc3ccc(OC)cc3s2)cc1
  -1.3, 0.88
CCCCN(C(=O)Nc1ccc(Cl)cc1)C1CCN(C(C)=O)CC1
  0.43, 1
Cc1cc(NC(=O)CSc2ncc(C)c(=O)[nH]2)no1
  1.1, 1
CCOc1ccc(NC(=O)CCNS(=O)(=O)c2ccc3c(c2)CCC(=O)N3)cc1
  -1.1, 0.98
Cc1sc2ncnc(SCC(=O)Nc3ccc(Br)cc3)c2c1C
  0.83, 1.1
O=S(=O)(Nc1ccc(Br)cc1F)c1cnc[nH]1
  1.8, 1.1
O=C(NCc1ccccc1)C1CCCN(S(=O)(=O)c2ccc(Br)s2)C1 (centres undefined)
  0.0022, 1
Cc1nc2cc(-c3ccccc3)nn2c(C)c1CCC(=O)Nc1ccccc1Cl
  0.65, 1
CC1CCN(c2c(NCc3ccc(C(=O)NC4CCCc5ccccc54)cc3)c(=O)c2=O)CC1 (centres undefined)
  -0.31, 0.99
Cc1ccc(N2C(=O)CC(NCCc3ccc(S(N)(=O)=O)cc3)C2=O)cc1Cl (centres undefined)
  -2.3, 0.78
Cc1ccccc1S(=O)(=O)NC(=O)Nc1nc(-c2cccc(C(F)(F)F)c2)cs1
  -1.9, 0.92
Cc1ccccc1NS(=O)(=O)c1ccc2[nH]cc(C(=O)NC3CCCCC3)c(=O)c2c1
  -6.4, 0.66
Cc1cc(C)n(CC(=O)Nc2nc(-c3ccccc3)cs2)n1
  0.1, 1.1
Cc1cccc(OCCn2c(CCCO)nc3ccccc32)c1
  -0.42, 0.9
O=C(Cc1ccc(NC2=NC3CS(=O)(=O)CC3S2)cc1)NC1CCCCC1 (centres undefined)
  1.2, 1.1
Cc1cc(N2CCCCC2)nc2ccc(NC(=O)C(c3ccccc3)C3CCCC3)cc12 (centres undefined)
  1.1, 1.1
O=C(Nc1cccc(F)c1)C1CC(=O)N(c2ccccc2)C1 (centres undefined)
  0.78, 1.1
CCOc1ccc(-n2c(C)nc3c(cnn3-c3ccccc3Cl)c2=O)cc1
  -2.3, 0.85
Cc1ccn2c(Nc3ccccc3)c(-c3ccsc3)nc2c1
  1.1, 1
CCCCN(C)CCNS(=O)(=O)c1ccc2c(c1)CCN2C(=O)CC
  0.38, 1

New compounds follow.
The line under a structure holds: CBX7 AlphaScr z-score, CBX7 AlphaScr
COc1ccc(-c2noc(CCC(=O)N3CCN(Cc4ccccc4)CC3)n2)cc1
  0.081, 1.1
CCOC(=O)c1c(C)n(-c2cccc(Br)c2)c2c1cc(O)c1ccccc12
  -4.3, 0.75
COc1cccc(Nc2cc(C)nc3ncnn23)c1
  2.4, 1.1
COc1ccc(OCc2nc3ccccc3n2CCC2CCCCC2)cc1
  -0.091, 1
COc1ccccc1NS(=O)(=O)c1ccc2c(c1)CCN2C(=O)CCC(=O)O
  -1.1, 0.93
CC(C)NC(=O)C1CCN(C(=O)c2cc3sccc3n2Cc2ccc(Cl)cc2)CC1
  0.7, 1
Nc1nonc1-n1nncc1-c1ccccc1
  0.43, 1
COc1cccc(C(=O)Nc2ccc3oc(-c4ccc(F)cc4Cl)nc3c2)c1
  1, 1
Cc1ccc(OCCNC(=O)C2CC(=O)N(c3ccc(C)cc3)C2)cc1 (centres undefined)
  -0.16, 0.99
Cc1ccc(-c2cc(C(F)F)n3ncc(C(=O)N4CCCCCC4)c3n2)cc1
  2.9, 1.1
COCCNC(=O)c1cc(Nc2cccc(SC)c2)nc2ccccc12
  4.9, 1.2
Cc1cc(Nc2ccc(F)cc2F)nc2cc(O)ccc12
  -0.94, 0.95
COc1ccccc1Nc1nc(-c2cc3ccccc3o2)cs1
  -2, 0.87
COc1ccc(NC(=O)Cn2nnc(-c3ccccc3)n2)c(OC)c1
  -0.21, 0.84
CCS(=O)(=O)N1CCC(C(=O)NCCc2ccc(OC)c(OC)c2)CC1
  0.83, 1
CCOC(=O)c1c(C)n(-c2ccc(C)cc2)c2ccc(OCC(O)CNCCO)cc12 (centres undefined)
  -3.5, 0.68
COc1ccc(C(=O)c2oc3ccccc3c2NC(=O)c2cccc(C)c2)cc1
  2.3, 1.5
CC(C)c1ccc(NC(=O)CN(C)S(=O)(=O)c2ccc3c(c2)n(C)c(=O)c(=O)n3C)cc1
  -0.099, 0.99
COc1ccc(-c2nc3cc(NC(=O)COc4ccccc4OC)ccc3o2)cc1
  -1.8, 0.94
Cc1cc(NC(=O)CSc2nc3c(cc2C#N)CCC3)no1
  1.9, 1.1
COc1ccc(CNC(=O)c2cc(-c3ccc(Br)s3)nc3ccccc23)cc1
  1.9, 1
Cc1ccc(C)c(N2CCN(C(=O)CCc3c(C)nc4c(c(C)nn4-c4ccccc4)c3C)CC2)c1
  2.2, 1.1
Cc1cccc2c1-c1sc(C(=O)Nc3ccc(Cl)cc3)cc1CO2
  0.86, 1
COc1ccc(OCC(O)Cn2c(=N)n(CCN3CCCCC3)c3ccccc32)cc1 (centres undefined)
  -0.15, 0.98
CCc1ccccc1NC(=O)c1cc2c(-c3cccc(OC)c3)nn(C)c2s1
  1.3, 1
CC1CCCCN1CCNC(=O)C1CC(=O)N(c2ccc(F)c(Cl)c2)C1 (centres undefined)
  2.9, 1.1
CCCCN(C)CCCNC(=O)c1cc(-c2ccc(OC)cc2)nc2ccc(C(C)C)cc12
  7.5, 1.3
CCOC(=O)c1cnc2ccc(OCC)cc2c1NCc1cccnc1
  0.96, 1
CCc1ccccc1Nc1cc(C(=O)NCCc2ccc(Cl)cc2)c2ccccc2n1
  1.5, 1.1
Cc1cc(C)cc(N2CC(c3nc4ccccc4n3CCOc3ccccc3)CC2=O)c1 (centres undefined)
  0.45, 1.1

4 entries from above, with each value named.
Cc1ccc(N2C(=O)CC(NCCc3ccc(S(N)(=O)=O)cc3)C2=O)cc1Cl (centres undefined)
  CBX7 AlphaScr z-score: -2.3; CBX7 AlphaScr: 0.78

Cc1ccccc1S(=O)(=O)NC(=O)Nc1nc(-c2cccc(C(F)(F)F)c2)cs1
  CBX7 AlphaScr z-score: -1.9; CBX7 AlphaScr: 0.92

Cc1ccccc1NS(=O)(=O)c1ccc2[nH]cc(C(=O)NC3CCCCC3)c(=O)c2c1
  CBX7 AlphaScr z-score: -6.4; CBX7 AlphaScr: 0.66

Cc1cc(C)n(CC(=O)Nc2nc(-c3ccccc3)cs2)n1
  CBX7 AlphaScr z-score: 0.1; CBX7 AlphaScr: 1.1

(cont.)
The line under a structure holds: CBX7 AlphaScr z-score, CBX7 AlphaScr
O=C1CCCc2c1cc(C(=O)Nc1ccc(Br)cc1)c(=O)n2-c1ccccc1
  -0.0094, 1
CCOC(=O)C(C)Sc1nnc(Cc2cc(=O)[nH]c(=O)[nH]2)n1-c1ccc(F)cc1 (centres undefined)
  1.3, 1.1
CC1CCCN(CCCNC(=O)C2CC(=O)N(CCc3ccccc3)C2)C1 (centres undefined)
  -0.2, 0.99
CCN(CC)C(=O)Cc1c(C(=O)O)[nH]c2ccc(Cl)cc12
  0.035, 1
CCCCN(CCCC)C(=O)c1oc2ccc(S(=O)(=O)N3CCCCCC3)cc2c1C
  -0.98, 0.91
CCOc1ccc(C2CC(=O)Nc3cc(OC)cc(OC)c32)cc1Cl (centres undefined)
  -0.79, 0.94
Cc1oc(-c2cccs2)nc1CN1CCCC(C(=O)NCc2ccc(Cl)cc2)C1 (centres undefined)
  0.63, 1
COc1ccccc1C1Nc2ccccc2NC2=C1C(=O)CC(c1ccc(Cl)cc1)C2 (centres undefined)
  0.65, 1.1
O=C(CSc1nnc(Cc2cc(=O)[nH]c(=O)[nH]2)n1-c1ccc(F)cc1)Nc1ccc(F)cc1F
  -1.6, 0.94
Cc1ccc(Nc2nc(-c3ccccc3)cs2)cc1Cl
  -4.4, 0.72
COc1ccccc1C(=O)Nc1ccc2oc(-c3cccc(C)c3)nc2c1
  0.61, 1
COCc1cc(C)nc(Oc2ccccc2)c1C#N
  0.68, 1
COc1ccccc1CNC(=O)c1cnn2c(C)c(Cc3cccc(Br)c3)c(C)nc12
  -3.4, 0.63
CCOC(=O)c1ccc2c(c1)c1c(n2-c2ccccc2)CCCC1
  -2.9, 0.85
COc1ccccc1CCNC(=O)c1cnc2sccn2c1=O
  -1.3, 0.89
CCC(=O)N1CCc2cc(S(=O)(=O)NCCc3cccc(C)c3)ccc21
  0.7, 1
COc1ccccc1-c1nc(-c2ccc(Cl)cc2Cl)no1
  0.85, 1
CC(=O)N1CCc2cc(S(=O)(=O)NC(C(=O)N(C)Cc3ccccc3)C(C)C)ccc21 (centres undefined)
  -1.8, 0.9
Cc1c(C(=O)NCCCN2CCOCC2)oc2ccc(S(=O)(=O)N3CCCC3)cc12
  1.4, 1
CCCC(C)c1c(O)nc(Nc2nc(C)c3cccc(C)c3n2)[nH]c1=O (centres undefined)
  -3.9, 0.69
CCC(Cc1ccccc1)NC(=O)CS(=O)(=O)Cc1nc(-c2ccc(C)cc2)oc1C (centres undefined)
  0.16, 1.1
O=C(NCCC1=CCCCC1)c1cc(=O)n(Cc2ccc(Cl)cc2)c2ccccc12
  -0.81, 0.92

Random excerpt: four entries already listed.
The line under a structure holds: CBX7 AlphaScr z-score, CBX7 AlphaScr
O=C(CSc1nnc(Cc2cc(=O)[nH]c(=O)[nH]2)n1-c1ccc(F)cc1)Nc1ccc(F)cc1F
  -1.6, 0.94
COc1ccccc1CNC(=O)c1cnn2c(C)c(Cc3cccc(Br)c3)c(C)nc12
  -3.4, 0.63
CCOC(=O)c1ccc2c(c1)c1c(n2-c2ccccc2)CCCC1
  -2.9, 0.85
CCOc1ccc(C2CC(=O)Nc3cc(OC)cc(OC)c32)cc1Cl (centres undefined)
  -0.79, 0.94

Assay outcomes as filed in PubChem BioAssay.
